Screening data as filed in PubChem BioAssay.
NPYLR7 ag = mosquito NPYLR7 agonism | AID 1259423 | HEK293T NPYLR7/Galpha15, GCaMP6s calcium fluorescence | activation, % at 10 µM | hit rate 0.15% among 270,000; in the data active = activation above about 40%;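 also: 0% = vehicle and 100% = reference agonist at the receptor; some compounds past the cut are filed as inactive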
NPYLR7 ag max-min = recorded beside NPYLR7 ag, whose call it bears; activation, %; measured here: Max-Min RFU normalised activation; some inactives read as strong as hits;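 span of the calcium signal over five minutes; 0% = vehicle and 100% = native peptide agonist; compound fluorescence can raise it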
* marks the source's active call; other numbers are inactive results; i = inactive; & = joins results of further samples.

SMILES	NPYLR7 ag	NPYLR7 ag max-min
COc1ccc2nc(NC(=O)COC3CCCC3)sc2c1	4	1
COc1ccc(Cn2cc(C(=O)N(C)Cc3csc(C)n3)nn2)cc1	2	-4
CCn1c(SCC(=O)N/N=C\c2ccc(C(C)(C)C)cc2)nc2ccccc21	2	4
Cc1sc2c(c1C)CN(CCN1CCOCC1)CN2C(=O)c1ccccc1	10	10
COC(=O)c1ccc2c(c1)CC(CNC(=O)CCCCCl)O2 (centres undefined)	30	35
CCS(=O)(=O)c1ccc2oc(-c3cccc(OS(=O)(=O)c4ccc(F)cc4)c3)nc2c1	0	8
CCn1c(C)cc(O)c(C(c2cccc(OC)c2)c2c(O)cc(C)n(CC)c2=O)c1=O	16	18
O=C(C(Cl)Cl)N1CCSC1c1ccccc1OCc1ccccc1 (centres undefined)	-19	-18
CC(C)c1ccsc1C(=O)NC1CCN(CC(=O)NC2CC2)CC1	2	i
CC(O)CN1C(=O)c2ccccc2C(C(=O)O)C1c1cscn1 (centres undefined)	2	-2
O=C(NCc1ccncc1)c1oc2ccccc2c1CSc1ncn[nH]1	-13	-12
COCc1noc(-c2ccc(C#N)cn2)n1	3	2
S=c1[nH]nc(C2C3CCCCC32)n1-c1cccc2ccccc12 (centres undefined)	2	-3
COCCNC(=O)c1cccc(CSc2nc(C)cc(N3CCN(c4ccccc4Cl)CC3)n2)c1	10	7
c1cc(CN2CCCC(N3CCN(Cc4ccc5c(c4)OCO5)CC3)C2)ccn1 (centres undefined)	14	11
COc1ccc(C(=O)N2CCCC2)c(OC2CCN(C(=O)c3cc(C)n(C)n3)CC2)c1	5	3
CCCc1cc(C(=O)N2CCc3c(nc(-c4ccccc4)[nH]c3=O)C2)n[nH]1	-3	-5
O=C(c1ccco1)N1CCN(c2nccn3c(-c4ccccc4)cnc23)CC1	-1	-8
O=[N+]([O-])c1ccc(C=NNC2=Nc3cccc4cccc2c34)cc1	3	2
O=C(NCCNc1ccc(Nc2ccncc2)nn1)c1ccc2c(c1)OCO2	6	-1
COC(=O)c1ccc(CSc2nnc(-c3cccnc3)n2C2CCCCC2C)cc1 (centres undefined)	0	17
O=C(CCN1C(=O)c2ccccc2S1(=O)=O)Nc1ccccc1	0	21
O=C(CNC(=O)c1ccco1)N=Nc1c(O)[nH]c2ccccc12	-14	-23
Cc1cc(NS(=O)(=O)c2ccc(N)cc2)no1	-9&-7&-1	-14&-8&-5
Cc1ccc2c(-c3cc4c(n(CC5CC5)c3=O)CCN(C(=O)c3ccc5c(c3)OCO5)C4)cccc2n1	-2	-4
CCCc1[nH]n(-c2cccc(Cl)c2)c(=O)c1C1=C([n+]2cccc(CC)c2)C(=O)N(CC(C)C)C1=O	15	17
Cc1cc(S(=O)(=O)N2CCC(c3cn(Cc4ccc(C(F)(F)F)cc4)c4ccccc34)CC2)c(C)cc1Cl	26	13
Clc1ccc(-c2noc(-c3ccc4c(c3)OCO4)n2)cc1	1	-1
NCCN1C(=O)CC[C@H]2CN(C(=O)c3cc4ncccn4n3)CC[C@H]21	3	2
COc1ccc(C(=O)N2CCN(c3cc(Cl)nc(SCC(=O)N4CCOCC4)n3)CC2C)cc1 (centres undefined)	14	23
CC(O)/C=C/c1cccc[n+]1C (centres undefined)	-14	-16
O=P1(NN=Cc2ccc(Cl)cc2Cl)C=C(c2ccccc2)OC(c2ccccc2)=C1	4	4
COc1ccc(Cn2ncc(C)c2NC(=O)NC2CCCCC2)cc1OC	4	3
CC1(Cc2cccc(F)c2)C(=O)Nc2ccc(OC(F)(F)F)cc21 (centres undefined)	-2	0
CCCc1[nH]nc2c1C(c1ccccc1[N+](=O)[O-])C(C#N)C(=N)O2 (centres undefined)	-5	-6
C=CCNC(=NCC1CCN(C(C)C)C1)NCCCOCC (centres undefined)	-1	-4
Cc1nc2c(c(=O)n1C)CN(Cc1cc3n(n1)CCNC3)C2	0	-1
Cc1cc(C)c(NC(=O)CSc2nc(=O)n3ccc(C)cc3n2)c(C)c1	2	0
CCCCOCCCN/C(CC)=C(/C#N)C(=O)NNc1cc(OC)ccc1OC	-4	-4
Cc1cc(O)c(C)c2c1CC[C@H]1[C@H](C)C(=O)O[C@H]21	3	1
COCc1csc(NC(=O)N2CCCC2C2CCC2)n1 (centres undefined)	-23	-23
CC(C)c1ccc(NC(=O)NCCn2nc(-c3cccnc3)ccc2=O)cc1	12	5
COc1cc(OC)cc(C2NC(=O)N(C)C3=C2C(=O)N(CCN2CCCC2)C3)c1 (centres undefined)	-4	-2
CCN1CCCC1CNC(=O)C1=C(C)C(=O)OC12CCCCC2 (centres undefined)	5	8
COc1cccc(CN(c2ccc(Cl)cc2)S(=O)(=O)c2cccn3c(C)nnc23)c1	-10	-12
Cc1nc(C(=O)N2CCCC(O)(CO)CC2)c(C)o1 (centres undefined)	4	3
Cc1cnc(NC(=O)C2(C)CCN2C(=O)C(C)C)s1 (centres undefined)	1	0
CCOCC(=O)N1CCC(C(O)c2ccc(Cl)cc2)CC1 (centres undefined)	5	1
Cc1ccc(C)c(OCC(=O)NCCN2CCCC(C(N)=O)C2)c1C (centres undefined)	2	-4
COCCOc1nc(-c2ccc(F)cc2)n(-c2ccc(NCC(O)COCC(C)C)cc2)n1 (centres undefined)	-3	2
CN(Cc1nc2c(s1)CCCC2)C(=O)c1cc(COc2ccc(-n3cncn3)cc2)on1	-3&14	-4&3
CCCCC(CC)C(=O)NC(Cc1ccccc1)c1nnc(SCc2cccc(C)c2)n1-c1ccc(Cl)cc1Cl (centres undefined)	22	23
CC(=O)Nc1cccc(-c2ccc(C(=O)N3CCOCC3)o2)c1	3	4
CN(Cc1cccnc1)Cc1cn(C)nc1-c1cccc(Cl)c1	-2	-3
COc1ccccc1CNC(=O)C1(C)CCN1Cc1ccc2ccccc2c1 (centres undefined)	12	0
CC1(C)C=NC2(CCN(C(=O)c3ccc(=O)[nH]c3)CC2)S1	12	8
CCOc1ncccc1CN1CCCC(C(=O)NCCOc2ccccc2)C1 (centres undefined)	-5	-15
Cc1cc(-c2c(-c3ccccc3)ncn2C2CC=CC2)n[nH]1	25	12
CCCCN(CC(=O)N1c2ccccc2-n2cccc2C1c1cccc(Cl)c1)C(=O)c1cc(OC)cc(OC)c1 (centres undefined)	11	14
O=C(NCCc1ccccc1Cl)c1cc(N2CC[C@@H](O)C2)ccn1	4	0

15 entries from above in a different format.
Fields: NPYLR7 ag | NPYLR7 ag max-min
COc1cc(OC)cc(C2NC(=O)N(C)C3=C2C(=O)N(CCN2CCCC2)C3)c1 (centres undefined)
 : -4 | -2
CCN1CCCC1CNC(=O)C1=C(C)C(=O)OC12CCCCC2 (centres undefined)
 : 5 | 8
COc1cccc(CN(c2ccc(Cl)cc2)S(=O)(=O)c2cccn3c(C)nnc23)c1
 : -10 | -12
Cc1nc(C(=O)N2CCCC(O)(CO)CC2)c(C)o1 (centres undefined)
 : 4 | 3
Cc1cnc(NC(=O)C2(C)CCN2C(=O)C(C)C)s1 (centres undefined)
 : 1 | 0
CCOCC(=O)N1CCC(C(O)c2ccc(Cl)cc2)CC1 (centres undefined)
 : 5 | 1
Cc1ccc(C)c(OCC(=O)NCCN2CCCC(C(N)=O)C2)c1C (centres undefined)
 : 2 | -4
COCCOc1nc(-c2ccc(F)cc2)n(-c2ccc(NCC(O)COCC(C)C)cc2)n1 (centres undefined)
 : -3 | 2
CN(Cc1nc2c(s1)CCCC2)C(=O)c1cc(COc2ccc(-n3cncn3)cc2)on1
 : -3&14 | -4&3
CCCCC(CC)C(=O)NC(Cc1ccccc1)c1nnc(SCc2cccc(C)c2)n1-c1ccc(Cl)cc1Cl (centres undefined)
 : 22 | 23
CC(=O)Nc1cccc(-c2ccc(C(=O)N3CCOCC3)o2)c1
 : 3 | 4
CN(Cc1cccnc1)Cc1cn(C)nc1-c1cccc(Cl)c1
 : -2 | -3
COc1ccccc1CNC(=O)C1(C)CCN1Cc1ccc2ccccc2c1 (centres undefined)
 : 12 | 0
CC1(C)C=NC2(CCN(C(=O)c3ccc(=O)[nH]c3)CC2)S1
 : 12 | 8
CCOc1ncccc1CN1CCCC(C(=O)NCCOc2ccccc2)C1 (centres undefined)
 : -5 | -15

Next records follow:
SMILES	NPYLR7 ag	NPYLR7 ag max-min
Cc1ccc(C(=O)NCC2CCN(C)C2)c2ccccc12 (centres undefined)	2	2
Cc1ccc(C(=O)Nc2ccc(N3CCN(C(=O)Cc4nc(-c5cccc(F)c5)oc4C)CC3)nc2)cc1	26	9
N#Cc1cccc(SCCC(N)=O)c1	1	-1
O=C(c1ccc(=O)[nH]c1)N1CCC2(CCCN(Cc3cccc(F)c3F)C2=O)C1 (centres undefined)	1	-5
Cc1csc(=O)n1CC(=O)N1CCN(Cc2nc(-c3cccs3)no2)CC1	3	2
COc1ccncc1NC(=O)/C=C/c1ccc(N2CCOCC2)cc1	-5	-6
OC(COCc1ccco1)CN(CCN1CCOCC1)Cc1ccc(F)cc1 (centres undefined)	20	21
COc1ccc(-c2nc(N(CCCN3CCOCC3)CCC(=O)NCc3ccco3)c3ccccc3n2)cc1	-6	-1
Cc1cc(CNC(=O)/C=C/c2cccc(-c3ccccc3)c2)on1	-10	270
CC(C)=C1C2C=CC1C1C(=O)N(c3ccc(C(=O)O)cc3)C(=O)C21 (centres undefined)	-4	-14
CNC(=O)Cc1nc(C(=O)OC)cc(=O)s1	-1	-4
CC1c2cccn2CCN1c1nc(C(C)(C)C)nc2c1cnn2C (centres undefined)	0	-1
COC(=O)c1cc(CSc2nnc(C3CC3)n2C2CC2)oc1C	-4	-4
Cc1ccc(CNC(=O)c2ccc(-c3cc(-c4cccc(C(F)(F)F)c4)n[nH]3)cc2)o1	4	3
O=C1CC(C(=O)NC(c2ccc(F)cc2)C2CCCC2)c2ccccc2N1 (centres undefined)	-10	-9
COc1nccc(N(C)C)c1N	11	10
CC(C)(C)C1(C)OC(=O)C(=Cc2ccc(O)c(I)c2)C(=O)O1 (centres undefined)	4	2
COc1ccc(-c2cnc3ncnn3c2N2CCCN(C(=O)c3sccc3C)CC2)cc1	-2	-5
COc1ccc(S(=O)(=O)NC(=O)C2(C)CCN2C(=O)COc2ccc(Cl)cc2)cc1OC (centres undefined)	0	-2
O=C(Cc1ccccc1)Nc1ccnn1C1CCN(Cc2ccccc2-c2ccco2)CC1	0&-4	-4&-6
Cc1oc(-c2ccccc2)nc1CC(=O)NC(C)C(C)C (centres undefined)	1	1
O=C1CN(c2ccccc2)C(=O)C1C(=O)N1CCOCC1 (centres undefined)	-3	5
CN(c1nc(Cn2nnc(-c3cccs3)n2)cs1)C1CC1	-1	0
CC(C)CN(CC(O)c1ccc(F)cc1)C(=O)c1cccn1C (centres undefined)	9	9
Cc1ccc2nc(C)c(C(=O)N3CCN(C(C#N)c4ccc(F)cc4)CC3)cc2c1 (centres undefined)	-1	-3
CC1CCCCN1C(=O)c1ccc(-c2ccc(C3CCCCC3)cc2)s1 (centres undefined)	3	0
COc1cccc(NC(=O)N2CCSC23C(=O)N(Cc2cccc(C#N)c2)c2ccc(C)cc23)c1 (centres undefined)	-1	15
COCCCNC(=O)c1nn(C)c2c1CN(C(=O)c1csc3c1CCCC3)CC2	18	8
O=C(/C=C/c1ccc(Br)cc1)NCC(CO)Cc1ccsc1 (centres undefined)	4	2
CCN1C(=O)C(=Cc2cccc(OC)c2)SC1=S	4	-3
Cc1[nH]n(-c2cccc(C(F)(F)F)c2)c(=O)c1N=Nc1ccccc1	-5	-13
CCCCn1c(N)c(N(CCC)C(=O)Cn2cnnn2)c(=O)[nH]c1=O	4	9
CC12CCC(CC1=O)C2(C)C (centres undefined)	-16	-30
O=C(c1ccc(-n2cccc2)nc1)N1CCC2(CCc3ccccc32)C1 (centres undefined)	6	5
O=C(O)CN1C(=O)/C(=C/c2c(F)cccc2Cl)SC1=S	-4	-9
CCc1ccc(CNC(=O)CC2C(=O)NCCN2Cc2ccccc2F)nc1 (centres undefined)	6&-1	-1&-3
Brc1ccc2nc(-c3ccco3)c(Nc3ccc4c(c3)OCO4)n2c1	-3	-4
COc1cccc(C(=O)Nc2cc(C)nn2-c2nc(C)cc(=O)[nH]2)c1OC	18	11
CCN(CC)c1ccc2cc(-c3nnc(-c4cccc([N+](=O)[O-])c4)o3)c(=O)oc2c1	-7	-10
COC1CCN(c2ccc(N)cc2C(F)(F)F)CC1	-10	-18
Cc1ccc(C)c(NC(=O)CSc2nc3c([nH]c4ccccc43)c(=O)n2C)c1	0	22
Cc1cccc2c1C(=O)NC1(CCN(Cc3ccccc3C(F)(F)F)CC1)N2	9	14
O=C(N=C1N=C2C=CC(I)=CN2Cc2ccccc21)c1ccc(Cl)s1	7	11
COc1ccc(CC(=O)NCCNc2cc(-n3cccn3)ncn2)cc1	-6	-13
Cc1cccc(-c2cccc(-c3ccn(C(C)C(=O)Nc4nccs4)n3)c2)n1 (centres undefined)	2	-3
Cc1noc(CCNc2cncc(Cl)n2)n1	1	7
Cc1nccn1CCNC(=O)c1ccc(OC2CCN(S(C)(=O)=O)CC2)c(Cl)c1	3	-12
CCOC(=O)C1=c2/c(=C/c3ccccc3F)c(N)c(C#N)n2C(=O)C(c2ccccc2F)S1 (centres undefined)	0	14
O=C(NC1CCC[C@H]1OCc1ccccc1)c1cncn1-c1cccc(-c2cccc3c2sc2ccccc23)c1 (some centres undefined)	11	15
COCCN(Cc1c(-c2ccccc2)noc1N1CCCCC1)C(=O)C1CCCC1	10	20
COc1ccccc1C(C)N(C)Cc1nc(-c2ccccn2)no1 (centres undefined)	15	2
CC(C1CC1)N(C)c1ncccn1 (centres undefined)	5	3
Cc1c(C(=O)NCCO)nnn1-c1ccc2noc(-c3ccccc3)c2c1	6	4
CC(=O)Nc1ccc(CN(C)c2c(C)nc3ccc(C(=O)NCc4ccc5c(c4)OCO5)cn23)cc1	8	-4
O=C(Nc1ccc(I)cn1)c1ccc(-c2ccc(Cl)cc2)o1	-2	-2
COCCNC(=O)c1nn(-c2ccc(C)c(C)c2)c(=O)n(Cc2ccccc2F)c1=O	17	15

As a short view, part of the list above:
SMILES	NPYLR7 ag	NPYLR7 ag max-min
O=C(Nc1ccc(I)cn1)c1ccc(-c2ccc(Cl)cc2)o1	-2	-2
COCCNC(=O)c1nn(-c2ccc(C)c(C)c2)c(=O)n(Cc2ccccc2F)c1=O	17	15

These rows are one share of the data; rates above refer to the full screens.
